Mtb H37Rv: M. tuberculosis H37Rv growth inhibitors, H37Rv strain (AID 1626). hit rate 0.95% among 220,000. inhibition, % at 10 µM; hits with a dose series show IC50 in µM. M. tuberculosis H37Rv growth inhibition; higher % means a stronger effect;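 active means confirmed in a dose series; inconclusive means inhibition above 80% but not taken into the dose series; inactive means below 80% or under 30% at every dose of the series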;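 further: bacteria incubated seven days before Alamar blue readout; 0% = bacteria only wells and 100% = bacteria with antibiotic wells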
YopH inh: blocks Yersinia enterocolitica YopH tyrosine phosphatase; fluorescence Ex485/Em525; inhibition, %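 (about 10 µM by stock and volumes)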; hit rate 0.16% among 140,000; AID 898;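 active means inhibition of 50% or more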;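 further: controls were vehicle for no effect and minimum signal wells for full effect; inactives centre near -20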
Arbovirus anti: blocks arbovirus infection; hit rate 0.37% among 200,000; inhibition, % at 10 µM; arbovirus infection cell-based antiviral screen;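 active means inhibition from about 30%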;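 further: bluetongue infection of BSR cells; cell survival read as ATP light after 72 h; 0% = infected wells without compound and 100% = uninfected wells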
RecA splice inh: inhibitors of M. tuberculosis RecA intein splicing; cell-free RecA intein splicing, fluorescence; hit rate 0.75% among 290,000; inhibition, %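 (about 9 µM by stock and volumes)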; P9WHJ3; in the data active means inhibition above about 30%; inconclusive means no clear call, values can overlap the other calls;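 further: 0% = vehicle wells and 100% = reference inhibitor control wells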
Target sequence (P9WHJ3 whole entry, looked up, canonical isoform): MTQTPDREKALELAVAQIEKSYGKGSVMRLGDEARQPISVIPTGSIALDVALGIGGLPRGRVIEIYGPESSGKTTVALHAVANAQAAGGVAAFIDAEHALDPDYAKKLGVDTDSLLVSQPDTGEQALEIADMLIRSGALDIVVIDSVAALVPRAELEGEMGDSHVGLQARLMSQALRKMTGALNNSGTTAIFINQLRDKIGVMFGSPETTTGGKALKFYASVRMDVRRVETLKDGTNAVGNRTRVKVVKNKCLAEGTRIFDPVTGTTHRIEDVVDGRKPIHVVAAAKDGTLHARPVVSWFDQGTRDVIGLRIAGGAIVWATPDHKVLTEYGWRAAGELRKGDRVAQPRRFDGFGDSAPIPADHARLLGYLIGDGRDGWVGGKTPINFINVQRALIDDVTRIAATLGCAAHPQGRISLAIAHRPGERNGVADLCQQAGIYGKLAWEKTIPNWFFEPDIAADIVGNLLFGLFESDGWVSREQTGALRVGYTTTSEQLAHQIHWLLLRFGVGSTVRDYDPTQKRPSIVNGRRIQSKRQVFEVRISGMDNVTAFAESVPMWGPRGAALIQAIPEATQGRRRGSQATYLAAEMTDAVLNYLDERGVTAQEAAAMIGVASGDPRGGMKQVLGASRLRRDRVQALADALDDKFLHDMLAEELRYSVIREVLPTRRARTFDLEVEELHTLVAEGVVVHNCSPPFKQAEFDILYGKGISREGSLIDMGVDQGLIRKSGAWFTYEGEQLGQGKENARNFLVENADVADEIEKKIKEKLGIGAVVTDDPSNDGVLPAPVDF
Mtb betalactam: beta-lactam sensitization of Mtb H37Rv; inhibition, % at 25 µM; hit rate 0.27% among 330,000; M. tuberculosis H37Rv growth with meropenem, percent inhibition; hits of this screen are not shown here;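 active means about 74% or more and at least 40 points above the plate without the antibiotic, then above 30% in a dose series; inconclusive means first-round hits that could not be retested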;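 further: growth measured after seven days incubation then overnight dye step; 0% = bacteria only wells and 100% = bacteria with antibiotic; twin plates without the antibiotic show which effects depend on it; some results filed as inactive read as strong as hits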
Arbovirus anti repeat: recorded beside Arbovirus anti, whose call it bears; inhibition, %; measured here: 10K subset replicate screen; many hits read low in the repeat;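 first of two repeat runs on a subset; 0% = infected and 100% = uninfected wells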
An asterisk follows results filed as active; ? = inconclusive; · = not tested or not shown.

SMILES	Mtb H37Rv	YopH inh	Arbovirus anti	RecA splice inh	Mtb betalactam	others
C[C@H](NC(=O)c1nc[nH]c1C(=O)N[C@@H](Cc1ccccc1)C(=O)OCc1ccccc1)C(=O)OCc1ccccc1	·	·	·	-0.9	-8
Cc1cccc(NC(=O)CC2NC3CCCCC3NC2=O)c1 (stereo unspecified)	-18%	-49	-2	0.0	?
Cc1ccc(NC(=O)C(C)c2ccc(-c3ccccc3)c(F)c2)c(C)c1 (stereo unspecified)	-5%	-6	-8	-3.5	0
CN1CCN(S(=O)(=O)c2ccc(NC(=O)c3ccc(Br)o3)cc2)CC1	-16%	-18	11	1.1	-12
COC(=O)c1ccc(Oc2nc(NC(C)C)nc(N(C)C)n2)cc1	0%	-10	6	·	4
COc1ccc(C(=O)N(CCN2CCOCC2)CC(=O)NC2CCCC2)cc1OC	-2%	21	3	-0.5	-5
COc1cccc(C(=O)Nc2cccc(-c3ccc(N4CCOCC4)nn3)c2)c1OC	·	·	·	-2.9	-2
Cc1ccc(C2(C)NC(=O)N(CC(=O)NC(=O)NC(C)C)C2=O)cc1 (stereo unspecified)	·	·	·	-1.2	-3
O=C(NCc1ccc2c(c1)OCO2)Oc1ccccc1	-7%	·	3	0.0	-1	Arbovirus anti repeat=3
O=C(C1CCCN(S(=O)(=O)c2cccc3cccnc23)C1)N1CCN(c2ccccc2F)CC1 (stereo unspecified)	7%	-27	2	-2.6	4	Arbovirus anti repeat=4
O=C1Nc2ccccc2C1C(C[N+](=O)[O-])c1ccccc1 (stereo unspecified)	·	·	·	0.3	-4
CCc1ccc(C(CNc2nc(C(F)(F)F)nc3ccccc23)N(C)C)cc1 (stereo unspecified)	·	·	·	-4.9	79
Cc1cc(OC(=O)C2CC2)c([N+](=O)[O-])c(=O)[nH]1	2%	·	4	-3.0	26
COc1ccc(CN2CCCC(C(=O)N3CCCCC3)C2)cc1 (stereo unspecified)	·	·	·	-0.6	-2
CCc1ccc(OCC(=O)Nc2ccc3oc(=O)ccc3c2)cc1	·	·	·	15	83
COc1cc2c(cc1NC(=O)COC(=O)CNC(=O)c1ccccc1)oc1ccccc12	0%	·	-6	-1.3	10
O=C(NNC(=O)C1[C@H]2CCCC[C@@H]12)Nc1cccc2ccccc12 (stereo partly specified)	-4%	·	·	·	-4
COC(=O)c1ccc(N2CN=C(c3ccc(C)cc3)NC2=S)cc1	10%	-19	-2	0.7	12
Cc1c(C(=O)NCc2ccc3c(c2)OCO3)oc2ccc(S(=O)(=O)N3CCCCCC3)cc12	0%	9	-2	1.9	0	Arbovirus anti repeat=1
Clc1ccc(CNCc2cccs2)c(Cl)c1	3%	-23	-3	1.7	-11
COc1ccc(-c2cc(C(=O)N/N=C(\C)c3ccco3)c3ccccc3n2)c(OC)c1	·	·	·	0.4	-8
COc1cnc(-c2ccccn2)nc1Sc1ccc(F)cc1	<0.2µM*	·	-19	4.4	-12
COc1ccc(C2SCCN2C(=S)Nc2ccc(F)cc2)cc1 (stereo unspecified)	5%	-17	29	2.6	-3
CC1(C)CC(NS(=O)(=O)c2ccc(S(=O)(=O)N3CCOCC3)cc2)CCO1 (stereo unspecified)	-3%	-24	9	5.1	-15
CCC(C)N(NC(C)=O)c1nc(Cl)nc(NC(C)(C)C)n1 (stereo unspecified)	-3%	-5	1	-3.4	-7

Of the compounds above, 4 contain a furan ring, fused or not:
SMILES	Mtb H37Rv	YopH inh	Arbovirus anti	RecA splice inh	Mtb betalactam	others
CN1CCN(S(=O)(=O)c2ccc(NC(=O)c3ccc(Br)o3)cc2)CC1	-16%	-18	11	1.1	-12
COc1cc2c(cc1NC(=O)COC(=O)CNC(=O)c1ccccc1)oc1ccccc12	0%	·	-6	-1.3	10
Cc1c(C(=O)NCc2ccc3c(c2)OCO3)oc2ccc(S(=O)(=O)N3CCCCCC3)cc12	0%	9	-2	1.9	0	Arbovirus anti repeat=1
COc1ccc(-c2cc(C(=O)N/N=C(\C)c3ccco3)c3ccccc3n2)c(OC)c1	·	·	·	0.4	-8

(further entries)
SMILES	Mtb H37Rv	YopH inh	Arbovirus anti	RecA splice inh	Mtb betalactam	others
COCCN(CCOC)S(=O)(=O)c1ccc(C(=O)Nc2c(C)n(C)n(-c3ccccc3)c2=O)cc1	-14%	·	·	-4.4	1
COc1ccccc1N(C)S(=O)(=O)c1ccc(C(=O)NC(C)c2ccccc2)cc1 (stereo unspecified)	6%	·	·	-2.3	0
CN(CC(=O)Nc1cccc(F)c1)C(=O)C1CSC2(C)CCC(=O)N12 (stereo unspecified)	·	·	·	1.6	-9
COCCNC(=O)CN1C(=O)NC2(CCCc3cc(OC)ccc32)C1=O (stereo unspecified)	·	·	·	-0.1	7
CCC1(COC(NC(=O)c2cccnc2)(C(F)(F)F)C(F)(F)F)COC1	1%	-18	14	0.3	-1
Cc1nn(C)cc1/C=C/C(=O)c1ccc(O)cc1	2%	-20	-2	1.4	6
Cc1ccc(CSc2nnc(CCCCCNC(=O)OC(C)(C)C)o2)cc1	12µM*	·	·	-0.5	86
Cc1ccc(/C=C/C(=O)OCC(=O)Nc2ccc3[nH]c(=O)[nH]c3c2)o1	·	·	·	-0.6	-5
CN(C(=O)COC(=O)c1n[nH]c2ccccc12)c1ccccc1	2%	·	-1	·	12
CNC(=O)c1c(NC(=O)C(C)C)sc2c1CCC2	-4%	·	·	-0.5	7
O=C(OCn1nnc2ccccc2c1=O)c1ccco1	67%	-23	-5	-5.5	94
CCC/C=C1/CCCOC(C(=O)NCc2ccc(S(C)(=O)=O)cc2)(C(F)(F)F)C1 (stereo unspecified)	1%	·	·	-1.1	-1
c1ccc(OCc2nn3c(-c4cccnc4)nnc3s2)cc1	0%	-24	-17	3.0	-4
Cc1cc(C(=O)NNC(=O)Nc2ccc(Cl)cc2)no1	-4%	·	·	0.2	-5
CC(C)COc1ccccc1C(=O)NC(CO)C(=O)O (stereo unspecified)	-16%	-40	1	3.2	3
S=C(NCc1ccc(Cl)cc1)Nc1ccccc1Cl	5%	-35	3	2.3	-1
COC(=O)COc1cc2ccccc2cc1C(=O)Nc1ccccc1	2%	·	10	0.3	4
Cc1cc(C)nc(N2N=C(CSc3ccc(Cl)cc3)CC2=O)n1	4%	·	0	17	5
CN1C(=O)C2(OCCCO2)c2cc(Cl)ccc21	·	·	·	0.3	-3
Cc1ccc(NC(=O)COC(=O)Cn2nc(C)c([N+](=O)[O-])c2C)c([N+](=O)[O-])c1	-2%	-7	-2	1.0	-4
Cc1ccc(-c2nn(-c3ccccc3)cc2/C=C/C(=O)Nc2nccs2)cc1	-3%	-13	-20	-2.7	-1
CCN(CC)S(=O)(=O)c1ccc(OC)c(NC(=O)C(C)Oc2ccc3c(C)cc(=O)oc3c2)c1 (stereo unspecified)	4%	-1	-9	1.7	6
O=[N+]([O-])c1cc([N+](=O)[O-])c(Oc2ccc(Br)cc2Br)cc1NN1CCCCC1	·	·	·	0.4	-17
Cc1ccc(-n2c(C)cc(C(=O)CN3CCCCC3)c2C)cc1	4%	-22	4	0.8	2
Cc1cccc(C)c1OCCSc1nc2ccccc2n1CC(=O)O	·	·	·	1.2	-5
Other records:
SMILES	Mtb H37Rv	YopH inh	Arbovirus anti	RecA splice inh	Mtb betalactam	others
CCC(C)c1ccc(Nc2ncccc2C#N)cc1 (stereo unspecified)	-8%	-38	-4	1.0	15
O=C(NCC(=O)N1CCCC1)c1ccccc1F	·	·	·	0.3	-1
NC(=S)N/N=C1\CC(c2ccc3c(c2)OCCO3)Oc2ccc(F)cc21 (stereo unspecified)	3%	·	·	-0.8	-11
C/C(=N\Nc1nnc(-c2ccccc2)c(-c2ccccc2)n1)c1cccc([N+](=O)[O-])c1	77%	-23	-8	·	·
CN(C)c1cc[n+](CC(=O)c2cccs2)cc1	·	·	·	0.1	-6
COC(=O)CSc1ncc(OC)c(OC)n1	-5%	-41	6	-2.3	-15
COc1ccc([N+](=O)[O-])cc1NC(=O)CC(c1ccccc1)c1ccccc1	3%	-22	-1	-3.3	3
COc1cccc(N2CCN(C(=O)C3CCC(=O)N(C4CCCCCC4)C3)CC2)c1 (stereo unspecified)	·	·	·	0.2	1
COc1ccccc1NC(=O)CSc1nc(O)cc(=O)n1C	-6%	31	9	0.4	-15
Cc1cccc(C)c1NC(=O)CSc1nnnn1-c1ccc(C(=O)O)cc1	-4%	-4	6	-1.8	-2
O=Nc1c(-c2ccccc2)[nH]n(-c2ccccc2)c1=O	·	·	·	16	71
Cn1cnc([N+](=O)[O-])c1NCc1ccccc1	-2%	·	·	0.5	19
Cc1nonc1OC(C)CNCCNc1ccc([N+](=O)[O-])cc1 (stereo unspecified)	-8%	·	·	3.0	-1
O=C(Cn1cc2c(n1)CCCC2)Nc1ccccc1Br	0%	-48	3	2.0	3	Arbovirus anti repeat=-1
CCOc1ccccc1NC(=O)CSc1n[nH]c(=O)n1-c1ccccc1	·	·	·	0.0	-8
CCn1cc(/C=C/C(=O)Nc2c(C)nn(Cc3ccccc3)c2C)cn1	-4%	-25	5	-2.7	-9
CCOCCCNC(=O)Cc1c(C(=O)O)[nH]c2ccc(Cl)cc12	3%	-16	2	-0.2	-6
Cc1cc2c(NC(=O)Nc3ccccc3)cccc2nn1	·	·	·	3.8	-1
O=C(Cn1nc(-c2ccc(Cl)cc2)ccc1=O)N1CCC2(CC1)OCCO2	6%	·	4	-4.4	-13
COc1cc(SC)ccc1C(=O)Nc1cccc(C2OCCCO2)c1	·	·	·	-0.7	11
CNC(=O)CNC(=O)Nc1ccc(C)cc1	2%	·	2	-2.6	-6
Cc1cc(=O)[nH]c(N2CCN(c3ccc(Cl)cc3)CC2)n1	·	·	·	-0.7	-5
CCOc1ccccc1-n1c(SCC(=O)Nc2ccccc2C(=O)O)nc2ccccc2c1=O	·	·	·	3.0	-3
COc1cc(OC)cc(-c2cc3nc4c(c(N5CCN(c6ncccn6)CC5)n3n2)CCCC4)c1	13%	-51	-1	1.2	1
CCn1cc(C(=O)NC(=S)Nc2ccccc2[N+](=O)[O-])cn1	·	·	·	-6.2	3

Ordered by length of the SMILES (low to high): six of the compounds above
SMILES	Mtb H37Rv	YopH inh	Arbovirus anti	RecA splice inh	Mtb betalactam	others
CNC(=O)CNC(=O)Nc1ccc(C)cc1	2%	·	2	-2.6	-6
CN(C)c1cc[n+](CC(=O)c2cccs2)cc1	·	·	·	0.1	-6
COc1ccccc1NC(=O)CSc1nc(O)cc(=O)n1C	-6%	31	9	0.4	-15
COc1cc(SC)ccc1C(=O)Nc1cccc(C2OCCCO2)c1	·	·	·	-0.7	11
CCOc1ccccc1NC(=O)CSc1n[nH]c(=O)n1-c1ccccc1	·	·	·	0.0	-8
CCn1cc(C(=O)NC(=S)Nc2ccccc2[N+](=O)[O-])cn1	·	·	·	-6.2	3

Next structures follow.
SMILES	Mtb H37Rv	YopH inh	Arbovirus anti	RecA splice inh	Mtb betalactam	others
NNC(=O)CS(=O)(=O)CS(=O)(=O)CC(=O)NN	-10%	·	·	-3.2	1
O=C(NNC(=S)Nc1ccc(Cl)cc1)c1cccs1	-6%	·	-2	16	-1
COc1cccc(/C=C(\CC(=O)O)c2nc3ccccc3s2)c1	-8%	·	0	-0.6	7
COc1ccc(/C=C/C(=O)NCC(=O)N/N=C(\C)Cc2ccccc2)cc1	-21%	·	·	-3.3	-10
CN(C)c1ccc(CCc2ccc(N)cc2)cc1	·	·	·	3.4	-4
O=C(/C=C/c1ccccc1)Nc1sc2c(c1C(=O)O)CCC2	-2%	·	·	0.5	41
Cc1cc(C)c2c(NC(=O)CCl)nn(C)c2n1	26%	·	22	10	97
Cc1cccc(C)c1NC(=O)CSc1nnc(C)n1CC1CCCO1 (stereo unspecified)	-8%	·	3	-1.8	2
CC(C)C(NS(=O)(=O)c1ccccc1)C(=O)NC1CCCC1 (stereo unspecified)	·	·	·	1.7	-1
CC(C)=CCN1CCN(Cc2ccc(C)s2)CC1CCO (stereo unspecified)	6%	·	4	-0.8	45
Cc1cc(C)c(S(=O)(=O)NCCC2CCCN2C)c(C)c1 (stereo unspecified)	1%	7	-8	0.9	-19
O=C(c1ccc(F)cc1)N(c1ccccn1)C1CCCCC1	-9%	·	6	-1.1	-1
CC(C)=CC(=O)OCC(=O)Nc1cc(C)cc(C)c1	62%	·	-1	-0.5	5
COC(=O)c1cc(NC(=O)c2cc(-c3ccc(Cl)cc3)oc2C(F)(F)F)ccc1N1CCOCC1	15%	·	·	6.3	74
O=C(Nc1ccccc1F)C1CCN(S(=O)(=O)c2cccnc2)CC1	·	·	·	-2.0	-4
CCOC(=O)C1CCCN(C/C(O)=C(\C#N)c2nc(-c3ccc(Cl)cc3)cs2)C1 (stereo unspecified)	-3%	-31	-1	-2.0	9
CC(C)(C)Nc1nc(Cl)nc(Nc2ccccc2)n1	·	·	·	11	7
Cc1ccc2oc(-c3cccc(NC(=O)c4ccc(Br)o4)c3C)nc2c1	11%	-1	3	1.4	29
CCOC(=O)c1c(NC(=O)NC(C)(C)C)sc2c1CCN(C)C2	-5%	·	·	0.7	-13

High-throughput results as filed in PubChem BioAssay.

Some of the compounds tested; the hit share may differ from the screen's.
